Mtb growth: Mycobacterium tuberculosis H37Rv growth inhibition, cell based, confirmatory dose response (AID 1949); most inactive calls were filed without a number and no value below 0 was filed; 100,000 compounds, 1.6% hits; inhibition, % at 10 µg/mL; hits with a dose series show IC50 in µg/mL;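 active = confirmed in a dose series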;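 also: bacteria grown 7 days with compound before Alamar blue readout; 0% = untreated bacteria and 100% = reference antibiotic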
Numbers without * were called inactive; i = inactive. An excerpt; the hit share may differ from the screen's.

Compound	Mtb growth
CC(C)(C)c1ccc(OCc2ccc(C(=O)Nc3ccccc3)o2)cc1	i
Cc1ccc(N(CC(=O)Nc2ccccc2)S(=O)(=O)c2ccc(F)cc2)cc1	i
CCOc1ccc(S(=O)(=O)Nc2cc(C)ccc2OC)cc1	2.7%
CCc1nnc(NC(=O)c2cccc(S(=O)(=O)N(C)C)c2)s1	1.9%
CC1=C(C(=O)OC2CCCCCC2)C(c2ccc(F)cc2)C2=C(CCCC2=O)N1 (stereo unspecified)	8.6%
COC(=O)c1ccccc1NC(=O)CSc1ccc(Br)cc1	i
COc1ccc(S(=O)(=O)N2CCOCC2)cc1Br	i
O=c1oc2ccccc2cc1-c1cn2cc(Cc3cccc(Cl)c3Cl)sc2n1	0.5%
CC(C)n1c(C2CC(=O)N(c3ccccc3)C2)nc2ccccc21 (stereo unspecified)	i
COc1ccc(NC(=O)c2ccccc2N(C)S(C)(=O)=O)cc1	i
COc1ccc(NC(=O)Nc2cc(NC(=O)Nc3ccc(OC)c(OC)c3)c(C)nc2C)cc1OC	2.1%
CCOC(=O)COc1ccc(Br)cc1C1NC(=O)NC(C)=C1C(=O)OC(C)(C)C (stereo unspecified)	i

(next part)
Compound	Mtb growth
CC(=O)c1cccc(-n2nnnc2SCC(=O)Nc2ccccc2F)c1	i
O=C(Nc1ccc(I)cc1C(=O)NCC1CCCO1)c1ccccc1Cl (stereo unspecified)	i
O=C1CC(N2CCN(c3ccccc3O)CC2)C(=O)N1c1ccc(F)c(Cl)c1 (stereo unspecified)	i
O=C(NCC1CCCO1)C(=O)Nc1cccc(C(F)(F)F)c1 (stereo unspecified)	i
COc1cccc2cc(-c3csc(Nc4ccccc4Br)n3)c(=O)oc12	i
CC(C)OC(=O)c1cc(NC(=S)NCc2ccc(Cl)cc2)cc(C(=O)OC(C)C)c1	1.7%
CC(C)CC(=O)Nc1ccccc1NC(=O)CC(C)C	i
Cc1cc(C)nc(SCC(=O)Nc2ccc(N3CCOCC3)cc2)n1	i
CCc1nnc(NC(=O)C2CCC(C(C)(C)C)CC2)s1 (stereo unspecified)	i
O=C1CC(NCc2cccs2)C(=O)N1c1ccc(F)cc1 (stereo unspecified)	i
O=C(Nc1nccs1)c1ccc(NC(=O)C2CC=CCC2C(=O)O)cc1 (stereo unspecified)	i
CCn1c2ccccc2c2cc(NC(=O)C(=O)NCCN(C)C)ccc21	9.0%

Other records:
Compound	Mtb growth
COc1ccc(Cl)cc1NC(=O)COc1ccc(S(=O)(=O)NCCc2ccccc2)cc1	i
O=C1CN(C(=O)CN2CCCCC2)C(c2ccccc2)c2cc(Br)ccc2N1 (stereo unspecified)	i
CNC(=S)NNC(=O)c1sc2cccc(Br)c2c1Cl	i
COc1ccc(-c2nnc(Sc3ccc(C(F)(F)F)cc3[N+](=O)[O-])n2C)cc1OC	i
Cc1cc(Cl)ccc1NC(=O)c1ccc(NS(C)(=O)=O)cc1	i
Cc1cc(Nc2cccc(O)c2)c2cccc(C)c2n1	i
C=CCNC(=O)CN(Cc1ccc(Br)cc1)S(=O)(=O)c1ccc(Cl)cc1	i
CCn1cc(C(=O)O)c(=O)c2cc(F)c(N3CCN(C(=S)Nc4ccc(Cl)cc4)CC3)cc21	24.1µg/mL*
CCCC(C)C(=O)Nc1cc([N+](=O)[O-])ccc1OC (stereo unspecified)	6.5%
COc1cc(OC)cc(C(=O)Nc2cc(Cl)ccc2Oc2ccccc2)c1	5.6%
COc1ccccc1CC(=O)Nc1cc2oc3ccccc3c2cc1OC	3.6%
O=C(NCc1ccc(Cl)c(Cl)c1)c1cccc2ccccc12	0.2%

Continued.
Compound	Mtb growth
CCOC(=O)c1c(C(C)(C)C)oc2ccc(OC(=O)N3CCOCC3)cc12	i
Cc1cc(Cl)c(S(=O)(=O)NCCc2ccccc2)cc1OCC(=O)NC1CCCCC1	i
CC(C)(C)c1cc(Cl)c(O)c(NC(=S)NC(=O)c2cccnc2)c1	<0.1µg/mL*
N#Cc1c(NC(=O)Cc2ccc(Cl)cc2)sc2c1CCC2	i
CSc1nc(C)c(Oc2ccccc2)c(=O)n1C	8.9%
CN(CC(=O)N1CCN(C(c2ccccc2)c2ccccc2)CC1)S(=O)(=O)c1ccc(Cl)cc1	6.8%
CC1CCN(S(=O)(=O)c2ccc(NC(=O)c3cccc(F)c3)cc2)CC1	4.0%
O=C(c1ccccc1)N1CCN(CC(O)COC2CCCCC2)CC1 (stereo unspecified)	i
Cc1csc(NC(=O)CSc2nc(-c3cccs3)cc(-c3cccs3)c2C#N)n1	1.9%
O=C(c1cc(-c2ccccc2)on1)N1CCC2(CC1)OCCO2	i
COc1ccc(C2c3cc(OC)c(OC)cc3CC(=O)N2c2ccc(C(=O)O)cc2)cc1 (stereo unspecified)	i
Cc1cc(C)c(C)c(S(=O)(=O)NCc2ccc(C(=O)NCC3CCCO3)cc2)c1C (stereo unspecified)	i

The listing continues:
Compound	Mtb growth
CC(=O)c1ccc2c(c1)c1c(n2C)C(=O)CCC1	i
Cc1cccc(OCC(=O)Nc2sc3c(c2C(=O)NCC2CCCO2)CCCC3)c1 (stereo unspecified)	i
O=C(Oc1cccc(NC2=NS(=O)(=O)c3ccccc32)c1)c1ccncc1	i
Cc1ccc(N(CC(=O)NC2CC3CCC2C3)S(=O)(=O)c2ccccc2)c(C)c1 (stereo unspecified)	i
O=C(c1ccncc1)N1CCN(C(=O)c2cccs2)CC1	0.5%
Cc1ccc(Sc2ccc(CO)o2)cc1	i
O=C(Nc1ccc(Oc2ccc(Cl)cc2)cc1)c1ncn[nH]1	i
CCc1cccc(NC(=O)c2cc(OC)c(OC)c(OC)c2)c1	i
CC1Cc2ccccc2N1C(=O)Nc1ccc([N+](=O)[O-])cc1 (stereo unspecified)	23.2%
O=C(COc1ccc(Br)cc1CO)Nc1ccccc1	11.5%
OCCNCCOc1ccccc1-c1ccccc1	i
O=C1CC(SCc2nc3ccccc3[nH]2)C(=O)N1c1ccc(Cl)c(C(F)(F)F)c1 (stereo unspecified)	i

Next section:
Compound	Mtb growth
C=CCn1c(CC(=O)Nc2cccc(C(F)(F)F)c2)nnc1SCC(=O)Nc1ccccc1C	i
COc1ccc(C2CC(=O)C=C(Nc3ccc(Cl)cc3)C2)cc1 (stereo unspecified)	i
CC(=O)OCc1cc(-c2nn(C)c(=O)c3ccccc23)ccc1C	i
CCn1ccc(CNC(=S)Nc2cccc(C(F)(F)F)c2)n1	i
COc1ccc(OC)c(N2C(=O)CC(N3CCc4ccccc4C3)C2=O)c1 (stereo unspecified)	i
Cc1cccc(OCC(=O)Oc2ccc(F)cc2)c1C	i
Clc1ccc(SCCOCCN2CCCCCC2)cc1	i
Cn1c(COc2ccccc2)nnc1SC/C=C/c1ccccc1	i
CC(=O)Nc1ccc2nc(NC(=O)C(C)Oc3ccc(Cl)cc3Cl)sc2c1 (stereo unspecified)	10.3%
COc1ccc(C(=O)OC2CCN(C)CC2)cc1OC	i
O=C(Nc1ccc(F)cc1)c1ccc(NC(=O)C2COc3ccccc3O2)cc1 (stereo unspecified)	i
Cc1cccc(C(C)C)c1NC(=O)c1ccc(CN2CCc3ccccc3C2)cc1	i

Next entries follow.
Compound	Mtb growth
CCc1ccccc1NC(=O)COc1ccc([N+](=O)[O-])cc1	12.5%
O=C(NS(=O)(=O)c1ccc(Cl)s1)c1ccccc1	i
Cc1ccc(S(=O)(=O)N2CCC(C(=O)NCc3ccco3)CC2)cc1	1.0%
COC(=O)c1ccc2c(=O)n(Cc3cccs3)c(=S)[nH]c2c1	14.9%
CC(NC(=O)Cn1nc(C(F)(F)F)c2c1CCCC2)c1ccccc1 (stereo unspecified)	i
O=C(NC1CCCCC1)C(Cc1ccccc1)N1C(=O)C2C3C=CC(C3)C2C1=O (stereo unspecified)	i
Cc1cccc(Nc2nc(-c3sc(C)nc3C)cs2)n1	20.2%
O=C(Nc1ccc2c(c1)OCO2)c1ccc(S(=O)(=O)N2CCCCCC2)cc1	i
O=C(C1CCCO1)N1CCN(c2ncccn2)CC1 (stereo unspecified)	i
C=CCn1c(CSc2nc3ccccc3s2)nnc1SCC(=O)Nc1nc(C)c(C(=O)OCC)s1	i
CC(C)(C)OC(=O)NNC(=O)NC12CC3CC(CC(C3)C1)C2	1.0%
O=S(=O)(NC(=NCc1ccccc1)c1ccc(F)cc1)c1ccc(Cl)cc1	0.6%

Continued.
Compound	Mtb growth
O=C(O)C1CCN(c2nc(-c3cccc([N+](=O)[O-])c3)cs2)CC1	i
Cn1nnnc1SCC(=O)N1c2ccccc2CCc2ccccc21	2.2%
CCC(=O)N(c1ccc(F)cc1)c1nc(-c2ccc(OC)cc2)c(C)s1	i
CCCN(CCC)S(=O)(=O)c1ccc(NS(=O)(=O)c2ccccc2)cc1	i
O=C(Nc1ccc(CN2CCOCC2)cc1)c1sc2ccccc2c1Cl	4.1%
COc1ccc(NC(=S)NN2CCOCC2)c(OC)c1	1.9%
COc1cc(NC(=S)NNC(=O)c2ccc(C)c(C)c2)cc(OC)c1	i
COc1ccc2cc(Br)ccc2c1CC(=O)Nc1cccnc1	i
COc1ccc(NC(=O)N2CCN(c3cccc(C(F)(F)F)c3)CC2)cc1	i
Fc1ccc(Nc2ncnc3c2cnn3-c2ccccc2)cc1Cl	i
COc1ccc(-c2csc(NC(=S)NC(=O)c3cccc(I)c3)n2)cc1	0.4%
O=C(Oc1cccc2cccnc12)c1cccc([N+](=O)[O-])c1	10.8µg/mL*

(further entries)
Compound	Mtb growth
Fc1ccccc1CNC(=S)NC1CC1	i
O=C1CC(N2CCC(c3nc4ccccc4o3)CC2)C(=O)N1Cc1cccs1 (stereo unspecified)	2.8%
Cc1cccc(NC(=O)CSc2nnc(-c3ccc(N)cc3)n2C)c1	i
O=C(CCC1CCCC1)Nc1ccc([N+](=O)[O-])cn1	i
O=C(c1ccccc1)C(Sc1nc2ccccc2o1)c1ccc(Cl)cc1 (stereo unspecified)	1.1%
O=C(c1ccccc1)c1ccc(OCC(O)CN2CCN(c3cccc(Cl)c3)CC2)cc1 (stereo unspecified)	30.1%
CCOC(=O)C(Sc1cc(C)nc(N)n1)C(C)=O (stereo unspecified)	0.5%
CCN1C2=C(C(=O)CCC2)C(c2ccc(O)cc2)C2=C1CCCC2=O	i
CCOC(=O)c1c(C)n(OC)c2ccc3nonc3c12	i
CSc1ccc(CNC(C)(C)CO)cc1	i
Cc1ccc(S(=O)(=O)N(CC(=O)N2CCN(c3ccccc3)CC2)c2ccc(Cl)cc2C)cc1	8.0%
COc1ccc(Cl)c(N2CCN(CCCNC(=O)Nc3ccc(C)cc3)CC2)c1	4.4%

Structures from the list above with a tert-butyl group (6):
Compound	Mtb growth
CC(C)(C)c1ccc(OCc2ccc(C(=O)Nc3ccccc3)o2)cc1	i
CCOC(=O)COc1ccc(Br)cc1C1NC(=O)NC(C)=C1C(=O)OC(C)(C)C (stereo unspecified)	i
CCc1nnc(NC(=O)C2CCC(C(C)(C)C)CC2)s1 (stereo unspecified)	i
CCOC(=O)c1c(C(C)(C)C)oc2ccc(OC(=O)N3CCOCC3)cc12	i
CC(C)(C)c1cc(Cl)c(O)c(NC(=S)NC(=O)c2cccnc2)c1	<0.1µg/mL*
CC(C)(C)OC(=O)NNC(=O)NC12CC3CC(CC(C3)C1)C2	1.0%

The list continues.
Compound	Mtb growth
CCSc1nc2c(c(=O)[nH]1)C(c1cccc(O)c1)C1=C(CC(C)(C)CC1=O)N2 (stereo unspecified)	i
N#Cc1cccc(NC(=O)CSc2ccccc2)c1	i
NS(=O)(=O)c1ccc(CNC(=S)NCC2CCCO2)cc1 (stereo unspecified)	i
Cc1c(Cl)cccc1NC(=O)CS	2.5%
COC(=O)c1ccccc1NC(=O)CN(c1ccc(C)cc1)S(=O)(=O)c1ccc(F)cc1	i
Cc1cc2c(=O)n(-c3ccccc3)c(=S)[nH]c2s1	i
CC1=C(C(=O)Nc2ccc(C)cc2)C(c2cccc(Cl)c2Cl)NC(=S)N1 (stereo unspecified)	20.4%
Cc1ccccc1CSCC(=O)Nc1cccc(F)c1	i
CC(=O)Nc1ccc(N2C(=O)CC(N3CCN(Cc4ccccc4)CC3)C2=O)cc1 (stereo unspecified)	i
COc1ccc(CCNC(=O)C(=O)NCc2ccc(C)cc2)cc1	3.9%
CC(C)Oc1ccc(C(CC#N)Cc2ccccc2)cc1 (stereo unspecified)	1.7%
CCOc1ccc(S(=O)(=O)Nc2ccccc2C(=O)NCC2CCCO2)cc1 (stereo unspecified)	i

In the list so far, these contain a furan ring, fused or not:
Compound	Mtb growth
CC(C)(C)c1ccc(OCc2ccc(C(=O)Nc3ccccc3)o2)cc1	i
COc1ccccc1CC(=O)Nc1cc2oc3ccccc3c2cc1OC	3.6%
CCOC(=O)c1c(C(C)(C)C)oc2ccc(OC(=O)N3CCOCC3)cc12	i
Cc1ccc(Sc2ccc(CO)o2)cc1	i
Cc1ccc(S(=O)(=O)N2CCC(C(=O)NCc3ccco3)CC2)cc1	1.0%

Carrying on.
Compound	Mtb growth
O=C(Nc1ccc(Cl)cc1C(F)(F)F)C(c1ccccc1)c1ccccc1	i
CCN1CCN(C(=O)Nc2cccc(C(F)(F)F)c2)CC1	i
Cc1cc(NC(=O)CC2C(=O)N(c3ccccc3)C(=S)N2CCc2ccc(F)cc2)no1 (stereo unspecified)	3.4%
O=C(c1nc2n(n1)C(c1ccc(Cl)cc1)C=C(c1ccccc1)N2)N1CCOCC1 (stereo unspecified)	i
COc1c(Cl)cc(C(=O)NC(=S)Nc2ccc(N3CCOCC3)cc2)cc1Cl	i
O=C(CN1CCCC1)Nc1ccccc1Br	i
CCn1c(CNC(=O)c2cccc([N+](=O)[O-])c2)nnc1SCC(=O)Nc1ccc(Br)c(C)c1	i
CCNC(=S)NN1CCN(C)CC1	i
Cc1onc(-c2ccccc2Cl)c1C(=O)Nc1ccc(OCC(=O)N2CCOCC2)cc1	i
CCn1cnc2cc(NCc3nc4ccccc4n3C)ccc21	i
